Screening results: PubChem, Vanderbilt University
GIRK2 act: GIRK2 channel activation; HEK293-GIRK2 thallium flux, Thallos fluorescence; calls only for hits at 25 µM; AID 1259325; hit rate 0.05% among 63,000; P48051;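 active means among the strongest 0.2% of first-round signals and kept after retests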;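 further: first round at about 10 µM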
Target sequence (P48051 whole entry, looked up): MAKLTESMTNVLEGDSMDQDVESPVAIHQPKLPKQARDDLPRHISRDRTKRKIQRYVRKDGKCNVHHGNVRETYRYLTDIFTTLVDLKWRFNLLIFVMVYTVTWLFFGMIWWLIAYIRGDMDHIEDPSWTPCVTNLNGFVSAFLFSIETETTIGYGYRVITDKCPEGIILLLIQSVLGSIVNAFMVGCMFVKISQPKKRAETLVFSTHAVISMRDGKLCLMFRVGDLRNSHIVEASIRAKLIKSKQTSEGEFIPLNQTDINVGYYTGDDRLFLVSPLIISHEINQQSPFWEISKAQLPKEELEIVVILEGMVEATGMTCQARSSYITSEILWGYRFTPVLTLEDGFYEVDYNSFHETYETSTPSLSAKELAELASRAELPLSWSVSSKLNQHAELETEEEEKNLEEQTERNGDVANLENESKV
Calls only; i = inactive. These rows are one share of the data (hit frequency here may not be typical).

SMILES | GIRK2 act
Cc1nc(SCC(=O)NCc2ccccc2Cl)cc(-c2ccccn2)n1 | i
COc1ccc(-c2nnc(NC(=O)C3CC3)o2)c(OC)c1 | i
Cn1c(=O)c2c(ncn2CC(=O)OCc2ccccc2)n(C)c1=O | i
Cc1cc(NC(=O)Cc2ccc(F)cc2)n(-c2nc(-c3ccc(F)cc3)cs2)n1 | i
COc1ccc(C(=O)COC(=O)c2cc(OC)c(O)c(OC)c2)cc1 | i
Cc1cc(NC(=O)C2CCN(C(=O)c3cc(C)oc3C)CC2)no1 | i
O=C(NCCCn1ncccc1=O)c1cc2ccccc2oc1=O | i
CS(=O)(=O)N1CCC(C(=O)NCCNc2cc(-n3cccc3)ncn2)CC1 | i
COc1ccccc1-c1nnc(C2CCN(C(=O)CC(C)C)CC2)s1 | i
O=S(=O)(/C=C/c1ccccc1)NCc1ccc(C(O)c2cccs2)s1 (centres undefined) | i
CSCC(C)(O)CNC(=O)C(=O)NCc1ccc(Cl)cc1 (centres undefined) | i
CC(=O)Nc1ccc(S(=O)(=O)NCc2nn(C)c(=O)c3ccccc23)cc1 | i
Cc1ccc(NC(=O)NCCn2cnc(C)cc2=O)cc1 | i
CCOc1ccccc1-c1noc(-c2nn(-c3ccc(C)cc3)ccc2=O)n1 | i
COc1ccc2c(=O)c3c(=O)n(CCc4ccccc4)c(-c4ccco4)nc3oc2c1 | i
O=C(NCCCc1ccccc1)N1CCN(CC(O)C2CC2)CC1 (centres undefined) | i
O=C(Cn1cnc2ccccc21)Nc1cccc2nsnc12 | i
CCOC(=O)c1ccc(Nc2c(C(=O)N3CCCC3)cnc3nc(C)ccc23)cc1 | i
Cn1cccc1CN(Cc1cccs1)C(=O)c1cc(-c2ccco2)on1 | i
COc1ccc(NC(=O)COc2ccc(F)cc2)cc1N1CCCCC1=O | i
Cc1cccc(N2CCN(c3nccnc3SCC(=O)Nc3ccc4c(c3)OCCO4)CC2)c1C | i
CN(C)c1ncc(NS(=O)(=O)c2ccccc2Cl)cn1 | i
CCOc1ccc(C(=O)Nc2cc(-c3cccs3)nn2-c2nc(C(C)C)cc(=O)[nH]2)cc1 | i
Cc1nc(-c2cccs2)sc1CNC(=O)CNC(=O)c1ccccc1 | i
O=C(COc1ccccc1F)N1CCC(c2nnc(C3CC3)o2)CC1 | i
CCOc1ccc(CC(=O)NCC2CCN(C(=O)c3ccoc3)CC2)cc1 | i
COc1ccc(SCC2CCN(C(=O)C3CC3)CC2)cc1 | i
CCOc1ccc(-n2cc(C(=O)N3CCC(NC(=O)c4ccccc4)CC3)nn2)cc1 | i
Cc1nc2ccccn2c1C(=O)NCC(c1cccn1C)N(C)C (centres undefined) | i
O=C(N1CCOC(c2ccc(F)cc2)C1)C1(c2cccs2)CCCC1 (centres undefined) | i
CCOc1ccc(NC(=O)C(=O)NCC(C)(O)CSC)cc1 (centres undefined) | i
Cc1cc(C)cc(NC(=O)c2ccc3snnc3c2)c1 | i
O=C(CN1C(=O)CCC1=O)N(Cc1ccsc1)Cc1ccco1 | i
COc1ccc(C)c2sc(=NC(=O)CCCS(=O)(=O)Cc3ccccc3)n(C)c12 | i
O=C(c1ccncc1)N1CCC(CNS(=O)(=O)Cc2cccc(F)c2)CC1 | i
Cc1csc(CN2CCN(C(=O)c3ccc(S(=O)(=O)N4CCCCC4)cc3)CC2)n1 | i
CCOC(=O)c1ccc(Oc2coc3cc(OCC(N)=O)ccc3c2=O)cc1 | i
O=C(Nc1sc2ccccc2c(=O)c1-c1cccs1)c1ccco1 | i
COc1ccc(/C=C/C(=O)Nc2ccc(CC(=O)NC3CC3)cc2)cc1OC | i
COc1ccc(NC(=O)CN2N=NC3C(=O)N(c4ccc(OC)c(Cl)c4)C(=O)C32)cc1 (centres undefined) | i
Cc1ccccc1NS(=O)(=O)c1c(C)cc(C)c(N(C)S(C)(=O)=O)c1C | i
Cc1cc2c(SCC(=O)N3CCCc4ccccc43)ncnc2s1 | i
CCCCCC(O)CC[C@H]1C(O)CC(O)C1CCCCCCC(=O)O (some centres undefined) | i
O=C(Cn1cnc2c(-c3ccncc3)nsc2c1=O)Nc1ccccc1C(F)(F)F | i
CCOc1cc(S(=O)(=O)NCCCn2ccnc2)ccc1Cl | i
COc1cccc(-n2ccnc2SCc2nc(-c3ccccc3)no2)c1 | i
O=C(Nc1cccc(Br)c1)C1COCC(=O)N1Cc1cccs1 (centres undefined) | i
Cn1nc(CNC(=O)c2ccc(F)c(F)c2)cc1-c1ccccn1 | i
CCN(CC)c1ccc(NC(=O)/C=C/c2ccc(OC)c(OC)c2)cc1 | i
COCCCNC(=O)c1c(N)n(/N=C\c2ccccc2OC)c2nc3ccccc3nc12 | i
O=C(NCCc1csc(-c2ccccc2)n1)c1ccc(-n2ccnc2)nn1 | i
CC(C)(C)c1ccc(C(=O)NCc2cnn3ccccc23)cc1 | i
OCCn1c(-c2ccncc2)c(-c2ccc(F)cc2)c2ncccc21 | i
Cc1ccc(C)c(S(=O)(=O)NCCc2csc(-n3nc(C)cc3C)n2)c1 | i
CCOC(=O)c1ccc(NC(=O)CN2CC(c3nc(Cc4ccccc4)no3)C2)cc1 | i
O=C(c1cc(-c2ccccc2)nc2ccccc12)N1CCOCC1 | i
Cc1ccc(Cl)cc1-n1nnc(C(=O)Nc2ccccc2C#N)c1C | i
COc1ccc(/C=C2\Oc3cc(OC(=O)C(C)(C)C)ccc3C2=O)c(OC)c1 | i
CS(=O)(=O)CCNCc1nc(-c2ccc3ncnc(Nc4ccc(F)c(Cl)c4)c3c2)cs1 | i
O=C1NC(CCC(=O)N2CCN(Cc3cccnc3)CC2)C(=O)Nc2ccccc21 (centres undefined) | i

(further entries)
SMILES | GIRK2 act
CN(C)S(=O)(=O)N1CCN(Cc2nc3ccccc3[nH]2)CC1 | i
O=C(Cn1ccc2ccccc21)NCCCOc1cccc2cccnc12 | i
O=C(c1snc2c(=O)n(Cc3ccccc3)c(=O)[nH]c12)N1CCSCC1 | i
O=C(CCCSc1ccc(NC(=O)c2ccco2)nn1)Nc1ccc(F)c(Cl)c1 | i
O=C(c1ccsc1)N1CCC(Oc2ncccc2Cl)CC1 | i
CCOC(=O)c1oc2cc(OS(C)(=O)=O)ccc2c(=O)c1-c1ccc(OC)cc1 | i
COc1ccc(C)cc1Nc1nc(C(=O)N2CCNC(=O)C2)cs1 | i
O=C(Nc1ccc(Cl)c(Cl)c1)N(CCc1cccs1)Cc1cccnc1 | i
Cc1ccc(N2C(=O)C3N=NN(Cc4nc(-c5ccc6c(c5)OCO6)no4)C3C2=O)cc1Cl (centres undefined) | i
O=C(NCc1ccccc1)c1ccc(C(=O)NCc2ccccc2)cc1 | i
COc1ccc(-c2ccc(C(=O)Nc3ccc(NC(C)=O)cc3)o2)c([N+](=O)[O-])c1 | i
COc1cccc(NC(=O)Cn2cccc(-c3nc(-c4ccc(C)cc4)no3)c2=O)c1 | i
O=C(Cn1cc(S(=O)(=O)N2CCCC2)ccc1=O)N1CCCc2ccccc21 | i
C[N+]1(C)CCC(OC(=O)C(O)(c2ccccc2)C2CCCC2)C1 (centres undefined) | i
CCNC(=S)N1CCNC(=O)C1CC(=O)OCC (centres undefined) | i
COc1cccc(-n2c(=S)sc3c(=O)[nH]c(SCC(=O)Nc4c(C)cc(C)cc4C)nc32)c1 | i
O=S(=O)(NC1(c2nc(-c3ccncc3)no2)CCCCC1)c1ccc2c(c1)OCCO2 | i
CC(=O)c1ccc(NC(=O)c2cccc(S(=O)(=O)N3CCOCC3)c2)cc1 | i
O=C(CN1C(=O)CCC1=O)NC1CCCC(OC(=O)Nc2ccc(F)cc2)C1 (centres undefined) | i
CN(Cc1ccccc1)C(=O)CN1C(=O)c2ccccc2S1(=O)=O | i
Cc1cc(NC(=O)c2ccc(=O)[nH]c2)ccc1Br | i
COc1ccc(S(=O)(=O)N2CCCOC2CNC(=O)C(=O)NCCCN2CCOCC2)cc1C (centres undefined) | i
Cc1nc(SCc2nc(-c3ccc(F)cc3)no2)[nH]c(=O)c1C | i
c1ccc(-c2nnc(CN3CCCCC3)o2)cc1 | i
CCOC(=O)C(=O)N1CCN(C(=O)C2CC2c2ccc3c(c2)OCO3)CC1 (centres undefined) | i
COC(=O)c1ccc(C(=O)NCC2CCN(Cc3ccsc3)CC2)cc1 | i
COc1ccc(Cn2c(=O)c3c(nc(-n4nc(C)cc4C)n3C(C)C)n(C)c2=O)cc1 | i
CC1(C)CC[C@]2(C(=O)O)CC[C@]3(C)C(=CCC4[C@@]5(C)C[C@@H](O)[C@H](O)C(CO)(CO)C5CC[C@]43C)C2[C@@H]1O (some centres undefined) | i
Cc1cc(C)n(CC(=O)Nc2ccccc2C(F)(F)F)c(=O)c1-c1nc(-c2ccc(F)cc2)no1 | i
COc1ccc(-n2nncc2CN2CCN(C(=O)c3ccoc3)CC2)cc1F | i
Cc1ccc(NC(=O)c2ccc(CN3CCN(C)CC3)cc2)cc1Nc1nccc(-c2cccnc2)n1 | i
Cc1nc(N2CCOCC2)nc(C)c1NC(=O)c1ccco1 | i
CCn1c(=O)c(Oc2ccc(F)cc2F)cc2cnc(NC3CCOCC3)nc21 | i
Cc1ccc(N2CCCC(C(=O)Nc3ccc(C(F)(F)F)cc3)C2)nn1 (centres undefined) | i
COc1ccccc1CN=C1NC(=O)/C(=C/c2ccc3ncccc3c2)S1 | i
Cc1cc(NC(=O)Cn2cc(-c3nc(-c4cccs4)no3)ccc2=O)no1 | i
COC(=O)c1ccccc1NC(=O)Cn1cccc(S(=O)(=O)N2CCCC2)c1=O | i
CCC(C(=O)N1CCN(c2ccc3nnc(-c4ccco4)n3n2)CC1)c1ccccc1 (centres undefined) | i
COc1cc(/C=C2\SC(=S)N(c3ccc(NC(C)=O)cc3)C2=O)ccc1O | i
CCc1cc(CC)n(-c2nc3c(c(=O)n(CC)c(=O)n3C)n2Cc2ccc(OC)cc2)n1 | i
COC(=O)c1ccc(S(=O)(=O)N2CC(c3nc(Cc4cccs4)no3)C2)cc1 | i
CN1CCC(CNC(=O)NC2CCCCC2)CC1 | i
COc1ncc(NC(=O)c2snnc2C)cn1 | i
CN(C)C(=O)c1nnn(-c2ccc(NC(=O)c3ccc(Br)o3)cc2)n1 | i
CCC(C(=O)NCc1ccc(C(=O)c2cccs2)s1)c1ccccc1 (centres undefined) | i
CCOc1ccc(C2CC(c3ccco3)=NN2C(=O)c2ccco2)cc1 (centres undefined) | i
O=C(CCCn1c(SCC(=O)NC2CCCC2)nc2ccccc2c1=O)NCC1CCCO1 (centres undefined) | i
O=C(NCCC1=CCCCC1)C1CCCN(Cc2nc(-c3cccs3)no2)C1 (centres undefined) | i
O=C(NCCN1CCN(C(=O)NCc2ccc(Cl)cc2)CC1)c1cccs1 | i
COc1ccc(OCC(O)Cn2c(N3CCCC(C)C3)nc3c2c(=O)n(C)c(=O)n3C)cc1 (centres undefined) | i
COC(=O)Cn1c(=O)c2c(nc3n(-c4ccc(C(F)(F)F)cc4)c(C)cn23)n(C)c1=O | i
O=C(NCCS(=O)(=O)N1CCc2ccccc2C1)c1ccc(F)cc1 | i
Cc1ccccc1-c1cc(C(=O)N2CCC(NC(=O)Cc3cccs3)CC2)[nH]n1 | i
O=C(Cn1cc(S(=O)(=O)c2ccccc2)c(=O)c2cc(Cl)ccc21)Nc1ccccc1 | i
COc1cccc2sc(N3CC(OC(=O)C4CCC4)C3)nc12 | i
COc1cc(C)c(Cl)cc1S(=O)(=O)N1CCN(Cc2ccccc2)CC1 | i
CCOC(=O)N1CCN(c2ncc3c(=O)n(C4CCCC4)c(=O)[nH]c3n2)CC1 | i
CC(NC(=O)C1CCN(S(=O)(=O)N2CCCC2)CC1)c1ccc(F)cc1 (centres undefined) | i
COc1ccccc1NC(=O)CCn1c(=O)oc2ccc(Cl)cc21 | i
CCCCOc1ccc(NC(=O)N2CCN(c3cc(C)ncn3)CC2)cc1 | i

Pulled by structure from the entries so far (2):
SMILES | GIRK2 act
COC(=O)Cn1c(=O)c2c(nc3n(-c4ccc(C(F)(F)F)cc4)c(C)cn23)n(C)c1=O | i
Cc1ccccc1-c1cc(C(=O)N2CCC(NC(=O)Cc3cccs3)CC2)[nH]n1 | i

Next part:
SMILES | GIRK2 act
CCCCCCCC/C=C\CCCCCCCCCCCCCC(=O)NCCS(=O)(=O)O | i
O=C(Cn1c(=O)[nH]c2c(-c3ccccc3F)c[nH]c2c1=O)NCc1ccc2c(c1)OCO2 | i
COc1ccccc1N1CCN(CCNC(=O)Cc2ccc(F)cc2)CC1 | i
C#CCOCC1CCCN(S(=O)(=O)c2c(F)cccc2F)C1 (centres undefined) | i
O=C(Cn1nc(-c2cccs2)c2sc(N3CCOCC3)nc2c1=O)NCc1ccccc1 | i
CCOC(=O)N1CCC(NC(=O)C(C)n2nnc3ccccc3c2=O)CC1 (centres undefined) | i
CC(=O)N1CCN(c2nnc(SCC(=O)Nc3ccccc3)s2)CC1 | i

Among those listed so far, these have a Cl atom:
SMILES | GIRK2 act
Cc1nc(SCC(=O)NCc2ccccc2Cl)cc(-c2ccccn2)n1 | i
CSCC(C)(O)CNC(=O)C(=O)NCc1ccc(Cl)cc1 (centres undefined) | i
CN(C)c1ncc(NS(=O)(=O)c2ccccc2Cl)cn1 | i
COc1ccc(NC(=O)CN2N=NC3C(=O)N(c4ccc(OC)c(Cl)c4)C(=O)C32)cc1 (centres undefined) | i
CCOc1cc(S(=O)(=O)NCCCn2ccnc2)ccc1Cl | i
Cc1ccc(Cl)cc1-n1nnc(C(=O)Nc2ccccc2C#N)c1C | i
CS(=O)(=O)CCNCc1nc(-c2ccc3ncnc(Nc4ccc(F)c(Cl)c4)c3c2)cs1 | i
O=C(CCCSc1ccc(NC(=O)c2ccco2)nn1)Nc1ccc(F)c(Cl)c1 | i
O=C(c1ccsc1)N1CCC(Oc2ncccc2Cl)CC1 | i
O=C(Nc1ccc(Cl)c(Cl)c1)N(CCc1cccs1)Cc1cccnc1 | i
Cc1ccc(N2C(=O)C3N=NN(Cc4nc(-c5ccc6c(c5)OCO6)no4)C3C2=O)cc1Cl (centres undefined) | i
O=C(NCCN1CCN(C(=O)NCc2ccc(Cl)cc2)CC1)c1cccs1 | i
O=C(Cn1cc(S(=O)(=O)c2ccccc2)c(=O)c2cc(Cl)ccc21)Nc1ccccc1 | i
COc1cc(C)c(Cl)cc1S(=O)(=O)N1CCN(Cc2ccccc2)CC1 | i
COc1ccccc1NC(=O)CCn1c(=O)oc2ccc(Cl)cc21 | i
